HPGD block: HPGD (human) dehydrogenase inhibition; purified HPGD, NADH fluorescence kinetic, PGE2 substrate; 150,000 tested, 4.3% active; Potency, µM, for the others: at the highest dose activity change, negative = inhibition, most hits filed as inhibitors; active = well fitted inhibition curve with a large enough effect (not every such curve was filed as active); inconclusive = small, poorly fitted or top-dose-only effect, or another doubt; inactive = no such curve, though single readings can be large or run the other way;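 further: top concentration of the series not given in the record; plate controls included wells without enzyme; inactives centre near -10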
Target sequence (P15428 whole entry, looked up): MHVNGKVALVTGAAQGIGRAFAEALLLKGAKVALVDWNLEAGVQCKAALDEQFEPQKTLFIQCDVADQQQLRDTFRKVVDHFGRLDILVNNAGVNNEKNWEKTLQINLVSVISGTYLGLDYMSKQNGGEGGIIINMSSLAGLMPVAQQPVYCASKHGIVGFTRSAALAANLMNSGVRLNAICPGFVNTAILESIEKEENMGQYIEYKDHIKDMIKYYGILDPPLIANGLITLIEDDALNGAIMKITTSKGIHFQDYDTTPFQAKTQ
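NADH formation kinetics: reaction with 30 uM PGE2 and 1 mM NAD+ (final), 20 nM enzyme, Tris-HCl pH 8 with Tween 20, after 15 min compound preincubation at room temperature. Fluorescence change, last versus first of five reads.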
An asterisk follows results filed as active. On the % scale 0 is the no-effect control and ±100 the full control effect; potency means the concentration at half of the fitted maximal effect. Not all compounds are listed; rates above refer to the full screens.

For Cc1cccc(CCNC(=O)CCc2c(C)nc3ncnn3c2C)c1 the results were HPGD block 0.2%.
`O=S(=O)(NCC1CCCO1)c1ccc2oc3ccc(S(=O)(=O)NCC4CCCO4)cc3c2c1` (stereo unspecified) gave HPGD block -22.2%.
Screening O=C(CCS(=O)(=O)c1ccccc1)Nc1nc2c(s1)CCCC2 returned HPGD block -1.6%.
`COc1cc(C(=O)Nc2ccc(Oc3ncnc4sc(-c5ccccc5)cc34)cc2)cc(OC)c1OC` gave HPGD block inconclusive.
`COc1ccc(C(C)(C)C)cc1NC(=O)C1C2C=CC(C2)C1C(=O)O` (stereo unspecified) gave HPGD block -6.4%.
For Cc1cccc(Oc2ccccc2NC(=O)c2cnccn2)c1 the results were HPGD block -17.4%.
For O=C(Cc1cccs1)N(Cc1ccco1)C1(C(=O)NC2CCCC2)CCCCC1 the results were HPGD block 4.8%.
COc1ccc(/C=C2\SC(=S)N(CCCC(=O)Nc3ccccn3)C2=O)cc1OC was read as HPGD block -20.1%.
For CCOc1cc(N2CCOCC2)c(OCC)cc1NC(=O)Cn1[nH]c(=O)c2ccccc2c1=O the results were HPGD block 0.4%.
For Cc1cc(C)n(-c2ccc(C(=O)OCC(=O)N(CC(C)C)C3CCS(=O)(=O)C3)cc2)n1 (stereo unspecified) the results were HPGD block -15.3%.
Screening CN(C(=O)Nc1ccc(Cl)cc1)c1c2c(nn1C)CCCC2 returned HPGD block 1.9%.
For COC(=O)[C@@]1(Cc2ccc(OC)cc2)[C@H]2c3cc(C(=O)N4CCCC4)n(Cc4ccc(C)o4)c3C[C@H]2CN1C(=O)c1ccccc1 the results were HPGD block -9.5%.
For Cc1ccc2c(c1)c1c3n2CCN(C(=O)CN2CCN(C)CC2)C3CCC1 (stereo unspecified) the results were HPGD block -15.4%.
O=C(Cc1c(F)cccc1Cl)Nc1ccncc1 was read as HPGD block -4.5%.
`CCOC(=O)CCP(=O)(O)C(C)(O)c1ccccc1` (stereo unspecified) gave HPGD block -2.3%.
Screening CNC(=O)c1nc[nH]c1C(=O)NC returned HPGD block -6.0%.
For O=C(CC(=O)NC1CCCCC1)N/N=C/c1cccc2ccccc12 the results were HPGD block inconclusive.
`O=C(COc1ccc(Cl)cc1)NNC(=O)c1ccccn1` gave HPGD block -2.1%.
For Cc1nnc(NC(=O)CCC(=O)N2CCN(CCc3ccccc3)CC2)s1 the results were HPGD block -5.9%.
`CC(=O)Nc1ccc(N2S(=O)(=O)c3ccccc3S2(=O)=O)cc1` gave HPGD block inconclusive.
For COc1ccc(-n2c(Cc3cccn3C)nnc2SCC(=O)NCc2ccco2)cc1 the results were HPGD block -5.4%.
Screening OC1(C(F)(F)F)CC(O)(C(F)(F)F)n2nc(-c3ccccc3)cc2N1 (stereo unspecified) returned HPGD block -7.7%.
For Cc1cc(C(=O)CN2C(=O)NC3(CCCC3)C2=O)c(C)n1-c1ccc2c(c1)OCO2 the results were HPGD block -7.3%.
COC(=O)CN(C#N)c1nc(C)cc(C)n1 was read as HPGD block -5.1%.
For O=C(COC(=O)c1cccnc1Nc1cccc(C(F)(F)F)c1)NCc1ccc2c(c1)OCO2 the results were HPGD block inconclusive.
For CC(=O)[C@H]1CC[C@@H]2[C@H]3CC=C4C[C@@H](O)CC[C@]4(C)[C@H]3CC[C@]12C the results were HPGD block -2.5%.
COc1cc2c(cc1OC)CN(C(=O)CSc1nc(C)cc(C)c1C#N)CC2 was read as HPGD block -22.7%.
COc1ccc(C2(CNC(=O)/C=C/c3ccco3)CCCC2)cc1OC was read as HPGD block -22.4%.
For CCOc1ccc(N2C(=O)CC(Sc3nc(C)cc(C)c3C#N)C2=O)cc1 (stereo unspecified) the results were HPGD block -7.2%.
For O=C(CCN1C(=O)c2ccccc2C1=O)NCCN1CCOCC1 the results were HPGD block -9.0%.
`O=C(NCCN1CCOCC1)c1cc2c(=O)n3ccccc3nc2n1Cc1ccccc1` gave HPGD block inconclusive.
Screening CC(C)(C)C1CCc2onc(C(=O)NC3CCCC3)c2C1 (stereo unspecified) returned HPGD block -6.3%.
`CCC(C)n1ncn(-c2ccc(N3CCN(c4ccc(O)cc4)CC3)cc2)c1=O` (stereo unspecified) gave HPGD block 6.9%.
Screening CC(=O)Nc1ccc(S(=O)(=O)N(C)CC(=O)OCC(=O)N2CCc3ccccc32)cc1 returned HPGD block -11.5%.
Screening COc1ccc(-c2nsc3c(N4CCN(S(=O)(=O)c5ccccc5)CC4)ncnc23)cc1 returned HPGD block -15.2%.
For O=C(CNC(=O)C1CCCCC1)NCCCO the results were HPGD block -11.7%.
Screening CCCCC1=CC2=C(c3ccco3)C(=O)C(C)(OC(=O)c3ccc(OC)cc3)C(=O)C2=CN1C1CC1 (stereo unspecified) returned HPGD block -4.5%.
For O=C(O)c1cc(-c2cccc(Cl)c2)nc2nc(N3CCCCC3)sc12 the results were HPGD block inconclusive.
`O=C(c1ccc(N2CCOCC2)cc1)c1cccs1` gave HPGD block 12.6µM*.
Cc1ccccc1C(=O)NNC(=S)NC(=O)c1ccc(Cl)cc1Cl was read as HPGD block -1.3%.
For CC(NC(=O)CN(c1cccc(C(F)(F)F)c1)S(=O)(=O)c1ccc(Cl)c([N+](=O)[O-])c1)c1ccccc1 (stereo unspecified) the results were HPGD block -22.6%.
For CCOC(=O)c1c(C)nc(C)c(C(=O)OCC)c1-c1ccccc1 the results were HPGD block inconclusive.
For COc1ccccc1/C=c1\sc2nc(-c3ccco3)nn2c1=O the results were HPGD block -22.1%.
`Cc1cc(S(=O)(=O)N(Cc2cccs2)Cc2ccccc2F)ccc1-n1cnnn1` gave HPGD block -16.8%.
Screening CCC(C)[C@H](NC(=O)NCc1cccc(OC)c1)C(=O)OC (stereo partly specified) returned HPGD block -20.1%.
For Cc1ccc(C(=O)CSC2=C(C#N)C(c3ccco3)CC(=O)N2)c(C)c1 (stereo unspecified) the results were HPGD block inconclusive.
For CCCCC1=CC2=C(c3ccco3)C(=O)C(C)(OC(=O)c3ccc(OC)cc3)C(=O)C2=CN1CCCCO (stereo unspecified) the results were HPGD block -3.4%.
For O=C(/C=C/c1ccccc1Cl)Nc1ccncc1 the results were HPGD block -27.1%.
For CCS(=O)(=O)N1Cc2ccccc2CC1C(=O)NC(C)C12CC3CC(CC(C3)C1)C2 (stereo unspecified) the results were HPGD block -11.3%.
Cc1ccc(-c2nnc(SCC(=O)CC(=O)Nc3ccccc3)n2-c2ccccc2)cc1 was read as HPGD block -18.6%.
CCOC(=O)c1c(-c2ccccc2)oc2ccc(O)c(CN3CCCC3)c12 was read as HPGD block -5.3%.
`O=C(c1ccccc1)N1CCCc2ccccc21` gave HPGD block -15.1%.
For CSc1nc(C)cc(Oc2ccc(OCCOc3ccccc3)nn2)n1 the results were HPGD block -10.9%.
Cc1cc(C)cc(OCC(=O)Nc2nc3ccc([N+](=O)[O-])cc3s2)c1 was read as HPGD block -9.1%.
For Cc1cc(-c2ccc(Cl)cc2)oc(=O)c1NC(=O)c1ccccc1 the results were HPGD block 9.7%.
For Cc1ccc(S(=O)(=O)N(CC(=O)N2CCN(c3ccccc3F)CC2)C2CCCCC2)cc1 the results were HPGD block -6.5%.
COc1cc2c(cc1OC)C(C)N(C(=O)C1COc3ccccc3O1)CC2 (stereo unspecified) was read as HPGD block -5.5%.
For COC(=O)[C@@H](NC(=O)Nc1cc(Cl)ccc1C)C(C)C the results were HPGD block -3.0%.
`COc1cc(C(=S)N2CCOCC2)ccc1OC(=O)c1cc([N+](=O)[O-])c(C)c([N+](=O)[O-])c1` gave HPGD block -18.2%.
`CC(C)(C)n1nc2c(c1NC(=O)c1cccc(C(F)(F)F)c1)CS(=O)C2` (stereo unspecified) gave HPGD block -2.1%.
For CC1=CC2C(CC1=O)C(C)=CCC2C(C)C (stereo unspecified) the results were HPGD block -5.3%.
Cc1cccc(-n2c(N)c(-c3nc4ccccc4n3C)c3nc4ccccc4nc32)c1 was read as HPGD block -19.4%.
CCCc1c(O)nc(SCCN(CC)CC)n(C(=O)c2ccccc2)c1=O was read as HPGD block -9.9%.
CN(C)CCCO[C@H]1C([C@H](O)CO)O[C@@H]2OC(C)(C)O[C@@H]21 (stereo partly specified) was read as HPGD block -10.4%.
Screening COC(=O)C1=C(C)N=C2SC(C)C(=O)N2C1c1ccc(C(=O)OC)cc1 (stereo unspecified) returned HPGD block -25.7%.
For Cc1ccc(CSc2ccc(-c3cccs3)nn2)cc1 the results were HPGD block -8.0%.
Screening CC(C(=O)Nc1ccc(S(=O)(=O)N2CCCC2)cc1)N1CCN(C(=O)c2ccco2)CC1 (stereo unspecified) returned HPGD block -9.2%.
For CCOc1ccccc1C1N(c2ccc(OC)cc2)C(=O)C2CCCN21 (stereo unspecified) the results were HPGD block -11.5%.
`Cc1ccc(-c2nc(N3CCOCC3)sc2C(=O)N2CCOCC2)cc1` gave HPGD block -7.1%.
CC(C)OP(=O)(c1ccc(N(C)C)cc1)C(Nc1ccccc1)c1cccnc1 (stereo unspecified) was read as HPGD block -7.3%.
`Cn1c(SCc2nnc(-c3ccc(F)cc3)o2)nnc1C1COc2ccccc2O1` (stereo unspecified) gave HPGD block -12.4%.
CN1C2=NCCN2C(=O)c2ccccc21 was read as HPGD block -7.4%.
`COc1cc(-c2nnc(SCc3cc(=O)oc4cc(C)ccc34)o2)cc(OC)c1OC` gave HPGD block inconclusive.
`COc1ccc(-c2nc(N3CCOCC3)nc3n[nH]c(N)c23)cc1` gave HPGD block inconclusive.
Screening Cc1ccc2cc3cc(C(=O)NCCC(C)C)oc3nc2c1 returned HPGD block inconclusive.
NC(=O)c1c(NC(=O)C2CCCO2)sc2c1CCCCC2 (stereo unspecified) was read as HPGD block inconclusive.
Screening COc1ccc(-n2nc(C(=O)Nc3ccc(OC)c(OC)c3)c3c4ccccc4n(C)c3c2=O)cc1 returned HPGD block inconclusive.
For CCCCc1c(O)nc(SCC(=O)NCCc2ccc(OC)c(OC)c2)[nH]c1=O the results were HPGD block -4.7%.
Screening Cc1ccc(O)c(C(CCN(C(C)C)C(C)C)c2ccccc2)c1 (stereo unspecified) returned HPGD block -9.2%.
For CCOC(=O)N1CCN(c2cc(NCCC(=O)O)c3c4c(onc24)-c2ccccc2C3=O)CC1 the results were HPGD block -26.0%.
Screening Cc1ccccc1OCCCN1C(=O)C(=O)c2cccc(C)c21 returned HPGD block inconclusive.
CCOC(=O)c1c(NC(=O)c2cccs2)sc2c1CCC2 was read as HPGD block inconclusive.
`CCOC(=O)C1CCN(C(=O)Nc2ccc3snnc3c2)CC1` gave HPGD block -11.5%.
Screening COc1ccc(OC)c(/C=C2\SC(=S)N(Cc3cccnc3)C2=O)c1 returned HPGD block -11.0%.

As a short view, part of the list above:
For CCCCC1=CC2=C(c3ccco3)C(=O)C(C)(OC(=O)c3ccc(OC)cc3)C(=O)C2=CN1CCCCO (stereo unspecified) the results were HPGD block -3.4%.
For O=C(/C=C/c1ccccc1Cl)Nc1ccncc1 the results were HPGD block -27.1%.

Going on with the list.
Screening Cc1ccccc1C(=O)NC(=S)Nc1ccccc1C(F)(F)F returned HPGD block -6.7%.
Fc1cccc(CO/N=C/c2c(-c3ccccc3)nc3ccc(Cl)cn23)c1 was read as HPGD block inconclusive.
`COc1cccc(Nc2nc(-c3sc(NC(=O)c4ccccc4)nc3C)cs2)c1` gave HPGD block inconclusive.
`COc1ccc(C(=O)NC(=S)Nc2ccc3c(c2)Cc2ccccc2-3)cc1` gave HPGD block -18.0%.
`COc1ccc(NC(=S)N(CCCN2CCOCC2)Cc2cn(C)c3ccccc23)cc1OC` gave HPGD block -8.2%.
For COc1ccccc1CNC(=O)c1ccccc1NS(C)(=O)=O the results were HPGD block inconclusive.
For O=C(Nc1ccc(Cl)c(Cl)c1)N1CCSC1c1ccco1 (stereo unspecified) the results were HPGD block 22.4µM*.
For Cc1nc2cc(NCc3nc4ccccc4n3Cc3ccccc3)ccc2n1C the results were HPGD block -23.7%.
`C/C(=N/NC(=O)CNc1ccc(C)cc1)c1ccc(Cl)cc1` gave HPGD block -9.4%.
`Cc1ccc(N=C2N=C(N)c3ccccc32)c(C)c1` gave HPGD block -16.6%.
For COc1ccc(OC)c(CCNC(=O)CS(=O)(=O)Cc2nc(-c3ccc(C)cc3)oc2C)c1 the results were HPGD block -19.0%.
`S=C(NCCc1ccccc1)Nc1ccccc1Cl` gave HPGD block -25.8%.

In the list so far, 10 contain an aryl thioether with sulfur outside any ring.
For COc1ccc(-n2c(Cc3cccn3C)nnc2SCC(=O)NCc2ccco2)cc1 the results were HPGD block -5.4%.
COc1cc2c(cc1OC)CN(C(=O)CSc1nc(C)cc(C)c1C#N)CC2 was read as HPGD block -22.7%.
For CCOc1ccc(N2C(=O)CC(Sc3nc(C)cc(C)c3C#N)C2=O)cc1 (stereo unspecified) the results were HPGD block -7.2%.
Cc1ccc(-c2nnc(SCC(=O)CC(=O)Nc3ccccc3)n2-c2ccccc2)cc1 was read as HPGD block -18.6%.
For CSc1nc(C)cc(Oc2ccc(OCCOc3ccccc3)nn2)n1 the results were HPGD block -10.9%.
CCCc1c(O)nc(SCCN(CC)CC)n(C(=O)c2ccccc2)c1=O was read as HPGD block -9.9%.
For Cc1ccc(CSc2ccc(-c3cccs3)nn2)cc1 the results were HPGD block -8.0%.
`Cn1c(SCc2nnc(-c3ccc(F)cc3)o2)nnc1C1COc2ccccc2O1` (stereo unspecified) gave HPGD block -12.4%.
`COc1cc(-c2nnc(SCc3cc(=O)oc4cc(C)ccc34)o2)cc(OC)c1OC` gave HPGD block inconclusive.
For CCCCc1c(O)nc(SCC(=O)NCCc2ccc(OC)c(OC)c2)[nH]c1=O the results were HPGD block -4.7%.
